From PubChem
MgrA-DNA mod: S. aureus MgrA activity modulators, primary screen, biochemical, S. aureus Newman, fluorescence polarization | AID 602314, 2012 | 84,000 compounds, 0.13% hits | inhibition, %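 (about 10 µg/mL by stock and volumes)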 | MgrA-DNA binding;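 active = above 50% in either of two replicates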;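 note: 0% = protein plus DNA without compound and 100% = DNA alone without protein; higher means less MgrA bound to DNA so lower polarization; one replicate is shown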
Sa helicase inh: inhibitors of S. aureus replicative helicase, primary screen, biochemical, fluorescence unwinding readout; 120,000 compounds, 0.05% hits; replicative DNA helicase (DnaC/DnaB), Staphylococcus aureus; purified S. aureus helicase, fluorescence unwinding assay; about half of the hits fall short of the stated cut; inhibition, %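 (tested at about 80 µM)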; AID 485395, 2010;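 active = both duplicates at 50% or more, or one of them with a favoured structure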;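 note: 0% = mean of negative control wells and 100% = mean of positive control wells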
* marks the source's active call; other numbers are inactive results; . = not tested or not shown; & = joins results of further samples. An excerpt; rates above refer to the full screens.

Sample of the layout:
SMILES	MgrA-DNA mod	Sa helicase inh
Cn1c(=O)oc2cc(S(=O)(=O)NCCN3CCC(Cc4ccccc4)CC3)ccc21	1.0	5.0
COC(=O)c1ccc(/N=C/N(C)C)s1	.	17.0
CCc1cc2c(cc1C(=O)CCN1CCCC1)C(C)(C)CCC2(C)C	11.6	.

Results, from the start:
SMILES	MgrA-DNA mod	Sa helicase inh
Cn1c(=O)oc2cc(S(=O)(=O)NCCN3CCC(Cc4ccccc4)CC3)ccc21	1.0	5.0
COC(=O)c1ccc(/N=C/N(C)C)s1	.	17.0
CCc1cc2c(cc1C(=O)CCN1CCCC1)C(C)(C)CCC2(C)C	11.6	.
N=C(N)SCc1ccccc1	0.8	.
CCC(=O)NCc1csc(-c2cccs2)n1	-1.9	.
COc1ccc2c(c1)-c1ccccc1S(=O)(=O)N2C	0.5	11.0
O=C(CSc1c2c(nc3cc(Cl)ccc13)CCCC2)NCCCN1CCCCCC1	-3.0	18.0
O=C(CSc1nncc2ccccc12)Nc1ccccc1	0.5	5.0
COc1ccc(OC)c(S(=O)(=O)NC2CCCCNC2=O)c1 (configuration not stated)	.	21.0
Cc1onc(-c2ccccc2)c1-c1nnc(CSc2nnnn2C)o1	.	-3.0
CCCCn1c(N)c(N2CCN(Cc3ccccc3)CC2)c(=O)[nH]c1=O	.	0.0
Cc1cc(C)nc(SCC(=O)OCC(=O)Nc2ccc(N3CCCCC3)cc2)n1	.	-7.0
N#CC(CC(=O)N1CCCC1)(CC(=O)N1CCCC1)c1nc2ccccc2s1	.	-6.0
CCN1C2=C(C(=O)CCC2)C(c2cccc(OC)c2)C2=C1CCCC2=O	.	18.0
COc1ccc(C2CC(c3ccc(Br)cc3)=NN2C(C)=O)cc1OC (configuration not stated)	-0.2	.
O=C(O)CCCCN1Cc2ccccc2C1	-7.8	-2.0
O=C(CN1CCCC1)Nc1cc(C(F)(F)F)cc(C(F)(F)F)c1	-1.4	.
CCOC(=O)c1sc2nc(NC(=O)Cc3ccccc3)sc2c1C	.	7.0
CC(=O)Nc1ccccc1-c1nc2ccccc2[nH]c1=O	0.7&0.2	8.0&11.0
O=[N+]([O-])c1cccc2c(Br)[nH]nc12	-0.4	.
COc1ccc(CCCc2n[nH]c(=S)o2)c(C)c1	2.4	3.0
CC(C)=CC(=O)Nc1ccc2c(c1)OCO2	-0.5	11.0
CCc1oc2cc(O)ccc2c(=O)c1-c1ccc2c(c1)OCCO2	.	18.0
COCCNc1cn[nH]c(=O)c1Cl	-2.8	12.0
COc1cc(-c2nc3ccccc3c(=O)n2N)cc(OC)c1OC	.	-21.0
C=C(C)c1cccc(C(C)(C)NC(=O)Nc2ccc3c(c2)oc2ccccc23)c1	0.6	16.0
Fc1ccc(CNCc2cccn2-c2nnc(N3CCCC3)s2)cc1	.	4.0
O=c1cc(-c2ccccc2)oc2cc(Cl)ccc12	.	8.0
CC1SCC(=O)N(c2ccc(C(F)(F)F)cc2)C1=O (configuration not stated)	1.2	.
CC(C)=NOC1=NS(=O)(=O)c2ccccc21	-1.4	2.0
Cc1cc(C)c(S(=O)(=O)/N=C2\SCCN2S(=O)(=O)c2c(C)cc(C)cc2C)c(C)c1	-1.6	12.0
CCCN(C#N)c1nc(NC(C)C)nc(NC(C)C)n1	-1.2	11.0
O=C(Nc1ccccc1)c1c(F)cccc1F	.	-9.0
COc1ccc(CNC(=O)CCn2cnc3c2c(=O)n(C)c(=O)n3C)cc1	3.5	5.0
Cc1ccccc1C(=O)NCCn1cc(SCC(=O)Nc2nccs2)c2ccccc21	.	-4.0
N#Cc1c2c(c(NCc3ccccn3)n3c1nc1ccccc13)CCCC2	0.1	-1.0
Cc1nccc(-c2cccc(C#N)c2)n1	-4.1	2.0
O=C(NCSc1ccncn1)c1ccccc1	.	11.0
O=C(CCn1c(=O)sc2ccccc21)NC1CCCCC1	.	-3.0
COc1ccc(S(=O)(=O)N(C)c2ccc(C(=O)N3CCN(c4ccccc4F)CC3)cc2)cc1OC	1.3	10.0
Cc1cc(C)c2nc(N3CCC(C(=O)N4CCN(c5ccccn5)CC4)CC3)sc2c1	.	6.0
COc1ccc(CCNC(=O)c2ccc3c(SCC(=O)O)c4c(nc3c2)CCCC4)cc1OC	-4.3	18.0
O=C(O)c1ccccc1/C=N/NC(=O)C1CCCCC1	.	-8.0
CC1CCC(NC(=O)c2ccc(NC(=O)c3ccc(=O)[nH]c3)cc2)CC1 (configuration not stated)	0.0	-11.0
Cc1oc2c(c1C(=O)NCCCn1ccnc1)C(=O)c1ccccc1C2=O	0.8	34.0
NS(=O)(=O)c1ccc(NC(=O)CSCC(=O)O)cc1	.	17.0
C=Cc1nc2c(cnn2-c2ccccc2)c(=O)[nH]1	.	-4.0
c1ccc2c(CNc3ccc(CNc4ncn[nH]4)cc3)cccc2c1	-3.8	17.0
CN(C(=O)c1c(Cl)nc2sccn12)C1CCCCC1	-1.2	-7.0
Cc1ccc(S(=O)(=O)N2CN3CN(C2)CN(S(=O)(=O)c2ccc(C)cc2)C3)cc1	1.2	-7.0
COc1ccccc1OCCC(=O)Nc1nc(C)cs1	.	6.0
CC(C)NC(=O)NCc1cccn1Cc1ccccc1	.	3.0
Cc1ccc(CN2C(=O)C=CC2=O)cc1	2.4	.
Nc1nc2ccccc2n1CCN1CCOCC1	.	11.0
Cc1cccc2cc(CN(Cc3ccco3)C(=O)c3ccccc3)c(=O)[nH]c12	3.8	-7.0
Cc1ccc2nc(NC(=O)c3ccc(-c4ccccc4)cc3)sc2c1	.	-5.0
O=C(CCNS(=O)(=O)c1cccc2nsnc12)NC1CCCCC1	.	36.0
CCCCCC(=O)/C=C/C=C\CCCCCCCC(=O)O	1.5	.
CCc1ccc(-c2cc(C(=O)Nc3ccc(S(=O)(=O)NC(C)=O)cc3)c3ccccc3n2)cc1	.	-12.0
CC(C)CC(NS(=O)(=O)c1ccccc1)C(=O)O (configuration not stated)	-2.1	19.0
The results go on:
SMILES	MgrA-DNA mod	Sa helicase inh
CCc1nn(CCCC(=O)NCc2ccc(OC)cc2)c(=O)c2cc3occc3n12	.	9.0
Cn1c(SCCOc2ccccc2)nc2ccccc21	.	8.0
CCCCOC(=O)C1COc2ccccc2O1 (configuration not stated)	.	-32.0
Cc1ccc(-c2cc(C(F)F)nc(N3CCCCC3)n2)cc1	.	40.0
CCOC(=O)c1nc(N2CCOCC2)c2ccccc2n1	.	0.0
COc1cc(OC)cc(C(=O)OCC(=O)N2CCCC2)c1	.	15.0
CCCNC(=O)CSc1nnc(C)o1	.	23.0
Cc1ccc(C(=O)NCC2CCCO2)cc1C (configuration not stated)	2.5	-13.0
Cc1onc(-c2ccccc2Cl)c1C1=N/C(=C\c2ccc([N+](=O)[O-])cc2)C(=O)O1	1.6	.
O=C(NCCCn1ccnc1)c1ccc(S(=O)(=O)Nc2ccccc2)cc1	.	-19.0
Cn1c(NNC(=O)C(c2ccccc2)c2ccccc2)cc(=O)n(C)c1=O	.	13.0
C/C(=N/NS(=O)(=O)c1ccc(C)cc1)c1c(O)c2ccccc2oc1=O	.	8.0

Rewritten field by field: four of the compounds above
O=c1cc(-c2ccccc2)oc2cc(Cl)ccc12
- MgrA-DNA mod: .
- Sa helicase inh: 8.0

CC1SCC(=O)N(c2ccc(C(F)(F)F)cc2)C1=O (configuration not stated)
- MgrA-DNA mod: 1.2
- Sa helicase inh: .

CC(C)=NOC1=NS(=O)(=O)c2ccccc21
- MgrA-DNA mod: -1.4
- Sa helicase inh: 2.0

Cc1cc(C)c(S(=O)(=O)/N=C2\SCCN2S(=O)(=O)c2c(C)cc(C)cc2C)c(C)c1
- MgrA-DNA mod: -1.6
- Sa helicase inh: 12.0

(further entries)
SMILES	MgrA-DNA mod	Sa helicase inh
Cn1ccnc1Sc1ccnc2cc(Cl)ccc12	.	-7.0
N#Cc1ccsc1NS(=O)(=O)c1ccc(OC(F)(F)F)cc1	1.6	.
CSc1cccc(N2C(=S)NC3c4ccccc4OC24CCCC34)c1 (configuration not stated)	0.4	2.0
O=C1CCCC2=C1C(c1cccnc1)C1=C(CCCC1=O)O2	.	-17.0
COc1cc(OC)c(NS(=O)(=O)c2coc(C(N)=O)c2)cc1Cl	.	13.0
CC(C)Cn1c(CCNC(=O)c2ccccc2)nc2ccccc21	.	-15.0
N/C(=N\c1ncn[nH]1)N/N=C/c1c(Cl)cccc1Cl	.	27.0
COc1cc(-c2nc3ccccc3c(=O)n2NC(=O)c2c(F)cccc2F)cc(OC)c1OC	0.1	.
Cc1cc(C)c(OCC(O)CNC2CC(C)(C)NC(C)(C)C2)c(C)c1 (configuration not stated)	-1.0	-8.0
CCCC(=O)Nc1c(C(=O)c2ccccc2)oc2ccccc12	.	41.0
O=C(CSc1nnc(COc2ccccc2)o1)c1ccccc1	3.4	17.0
COc1ccc(C(=O)N=c2sc3cc(C)ccc3n2C)c(OC)c1	.	-19.0
COC(=O)c1cc2ccsc2n1Cc1cccc(F)c1	.	4.0
CC1=C(C(=O)OCCc2ccccc2)C(c2ccc(Br)s2)NC(=O)N1C (configuration not stated)	-1.2	.
CCOC(=O)CN(C)Cc1ccc(OC)cc1OC	1.2	9.0
COc1ccc(-c2sccc2C(C)C(=O)O)cc1 (configuration not stated)	1.5	-16.0
CCNC(=S)N1c2ccccc2NC2=C(C(=O)CC(C)(C)C2)C1c1ccc(N(C)C)cc1 (configuration not stated)	6.1	6.0
CC(C)C(=O)Nc1ncc(C(F)(F)F)cc1Cl	-1.2	-29.0
Cc1cc(C)n(CCC(N)=O)n1	0.0	18.0
COc1ccc(N2CCN(C(=O)c3ccc(NS(=O)(=O)c4cccs4)cc3)CC2)cc1	0.4	13.0
CCN1C/C(=C\c2cccs2)C(=O)/C(=C/c2cccs2)C1	.	24.0
COc1ccc(/C=C2/N=C(c3ccccc3)OC2=O)cc1OC1CCCC1	3.0	.
CN1/C(=C/C=N/O)C(C)(C)c2ccccc21	3.2	-3.0
C=CCN1CCN(C(=O)c2ccccc2C)CC1	-0.1	-1.0
S=C1NN=C(c2ccccc2)C(c2ccccc2)N1 (configuration not stated)	-5.5	-2.0
Cc1ccc2sc(NC(=O)C(C)C)nc2c1C	.	-17.0
CON(C)c1nc(-c2cccnc2)nc2ccccc12	.	-9.0
N#CC(Nc1ccc(F)cc1)c1ccco1 (configuration not stated)	.	11.0
Cc1cc(C(=O)Sc2ccc(Cl)cc2)nn1C(C)(C)C	.	-13.0
Cc1ccc(C2=NN3C(C2)c2ccccc2OC3c2ccc(OCc3ccccc3)cc2)cc1 (configuration not stated)	0.8	.
Cc1ccc(C)c(C(=O)NCC(C)C)c1	-0.1	5.0
CC(=O)n1c2ccccc2c2c(-c3ccccc3)c(N3CCOCC3)sc21	0.8	-2.0
CCOC(=O)c1cnn(C)c1NC(=O)c1ccc(Cl)cc1Cl	0.4	.
Cc1noc(C)c1-c1ccc(Cl)c(C(=O)O)c1	-1.4	1.0
C=CCn1c2ccccc2c2nnc(SCCC(=O)O)nc21	4.7	10.0
Cc1cc(C)c2[nH]c(=O)c(NC(N)=S)nc2c1	.	44.0
N#CC(=C1SCCCCS1)S(=O)(=O)c1ccccc1	-1.6	.
CC(C)N(C(=O)CSc1nc2ccc(S(N)(=O)=O)cc2[nH]1)c1ccccc1	.	-3.0
CCOc1ccc(C(C)=O)cc1N1C(=O)C2C3C=CC(O3)C2C1=O (configuration not stated)	1.0	.
O/N=C(/c1ccccc1)c1ccccc1N=Cc1cc(Cl)cc(Cl)c1O	-0.6	.
Cc1cc(NC(=O)Cn2c(=O)n(CC3CCC(C(=O)NC4CCCC4)CC3)c(=O)c3ccccc32)n[nH]1 (configuration not stated)	.	3.0
CC(C)C(=O)NCCc1c[nH]c2ccccc12	1.1	11.0
CCCCNC(=O)C1=C(C)C(=O)OC12CCCCCC2	.	-31.0
COc1ccc(OCNC(=O)Nc2nncs2)cc1	.	1.0
C(=C\c1ccccc1)/CN1CCN(C/C=C/c2ccccc2)CC1	.	7.0
CCN(CC)C(=O)CSc1nnc(-c2cccnc2)n1-c1ccccc1	2.3	-15.0
CCOC(=O)C(C#N)C(c1ccc(F)cc1)c1ccco1 (configuration not stated)	4.0	-8.0
COc1ccc(C/C(N)=N/OC(=O)Cc2ccccc2)cc1	0.3	5.0
CC(NC1CC2CC=CC21)c1ccc(-n2ccnc2)cc1 (configuration not stated)	.	11.0
CCn1c(O)c(N=N)c2ccccc21	.	-25.0
COC(=O)c1sc2ncccc2c1O	.	-13.0
CSc1ccccc1NC(=S)NC1CC1	.	-13.0
CCOc1ccc2nc(NC(=O)CN3CCN(S(=O)(=O)c4ccc(F)cc4)CC3)sc2c1	.	15.0
COCCN(Cc1nnc(-c2cccs2)o1)C(=O)C1CCN(S(=O)(=O)c2ccccc2)CC1	.	11.0
Cc1nc(SCc2ccc(C(F)(F)F)cc2)c2c(=O)n(C)c(=O)n(C)c2n1	-2.6	15.0
O=C(NCCN1CCN(C(=O)c2ccccc2Cl)CC1)C(=O)NCc1ccccc1	-0.9	.
Cc1cc(C)c(NC(=O)Cn2cnc3ccccc32)c(C)c1	.	-25.0
Cn1c(Cc2cccs2)nnc1SCC(=O)N1CCNC1=O	.	7.0
Cc1ccc2nc(NCCO)nc(-c3ccccc3)c2c1	.	6.0
CCOC(=O)C1CCN(c2ncnc3sccc23)CC1	.	-8.0
O=C(OCN1C(=O)c2ccccc2C1=O)c1ccc2c(=O)n3c(nc2c1)CCC3	.	-14.0
Cc1cccc(-c2nc(CS(=O)CC(=O)NCCc3ccccc3)c(C)o2)c1 (configuration not stated)	.	6.0
CCOC(=O)c1ccccc1NC(=O)c1nc(-c2ccc(C)cc2)n2c1CCCCC2	1.5	2.0
